Screening data from PubChem.
Autofluor counter = compound fluorescence in toxin protease inhibitor counterscreen | compound autofluorescence counterscreen, microsphere flow cytometry; active compounds read high | fluorescence intensity (no concentration beside the values) | AID 624483 | hit rate 3.1% among 360,000;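 active = at least 3 SD above the mean of all compounds, about 16000 in these data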;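 also: 100 nL of 1 mM stock went into each well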
Starred values were filed as active, the others as inactive.

SMILES	Autofluor counter
O=C(CN(c1ccccc1Cl)S(=O)(=O)c1ccccc1)NC1CC2CCC1C2 (stereo unspecified)	4037
CCOC(=O)[C@]12CCCC=C1N(Cc1ccc(Cl)cc1Cl)C(=O)[C@H](CC(=O)N1CCOCC1)C2	5730
CC(C)(C)c1ccc(C(=O)N2CCOC23CCCCC3)cc1	4227
CCOc1ccccc1C(=O)NC(C(=O)OCn1nnc2ccccc2c1=O)C(C)C (stereo unspecified)	3636
CCC(C)c1ccc(O)c(NC(=S)NC(=O)c2cccs2)c1 (stereo unspecified)	3448
CCOC(=O)C1(C)CCN1C(=O)c1ccc(C)cc1 (stereo unspecified)	3504
C[C@H](NC(=O)c1nc[nH]c1C(=O)N(C)CCO)c1ccccc1	4448
COc1ccc(C2OC(CCc3ccccc3)Cc3[nH]c(=S)[nH]c(=O)c32)cc1 (stereo unspecified)	5593
O=C(Nc1cccc2ccccc12)c1ccc2sc([C@@H]3O[C@H](CO)[C@H](O)[C@H](O)[C@H]3O)nc2c1	2847
C[C@@H]1CN([C@H](C)CO)S(=O)(=O)c2ccc(Br)cc2O[C@@H]1CN(C)Cc1ccc(C(=O)O)cc1	3677
CC(=O)Nc1ccc(-c2ccnc3c2CC(C(=O)Nc2cccc(C(F)(F)F)c2)O3)cc1 (stereo unspecified)	3784
Cc1cc(C)cc(-n2nnc3ccccc3c2=O)c1	3429
COc1ccc(C(=O)c2[nH]c(N)c(C(=O)NCCc3c[nH]c4ccccc34)c2-c2ccc(Cl)cc2)cc1	6308
Cc1cc(C)n2c(Nc3ccc4c(c3)OCCO4)c(C(C)C)nc2n1	5812
CCCCN1CC(N2CCN(Cc3cccc(C)c3)CC2)CS1(=O)=O (stereo unspecified)	6580
CC(C)C(=O)N1CCCC1(C)C(=O)Nc1ccc2c(c1)OCO2 (stereo unspecified)	2917
Cc1c(C#N)c2n(c1C)CCCC(=O)N2	3764
OC[C@@H]1CN(Cc2ccc3c(c2)OCO3)C[C@H](n2cnc3c(NC4CCC4)ncnc32)O1	3715
Cc1cccc(C)c1-n1nnnc1C(c1ccnc2ccccc12)N(CCN(C)C)Cc1ccccc1 (stereo unspecified)	6376
CCOC(=O)Nc1cc(OC)cc2ccc(C)nc12	3980
CNc1ccccc1C(=O)OCC(=O)N1CCc2ccccc2C1	3948
O=C(NCc1ccccn1)[C@@H]1CCCN1C(=O)[C@@H]1CCCN1C(=O)c1c(F)cccc1F	6002
COC(=O)c1cnc(NC(=O)C2(C)CCCN(C(C)=O)C2)s1 (stereo unspecified)	3754
CCCNC(=O)C1(C)CCCN(Cc2ccccc2Cl)C1 (stereo unspecified)	3897
COc1cc(/C=C/c2nc3ccccc3c(=O)[nH]2)ccc1O	3497
C[C@H]1CN([C@@H](C)CO)C(=O)CCCn2cc(nn2)CO[C@@H]1CN(C)C(=O)Nc1ccnc(N2CCOCC2)c1	3774
COC(=O)[C@@]1(Cc2ccc(F)cc2)[C@H]2c3cc(C(=O)N4CCCC4)n(Cc4ccc(OC(F)(F)F)cc4)c3C[C@H]2CN1C(=O)c1ccccc1	4361
O=C(C(=Cc1ccc(F)cc1)C(=O)c1ccccc1)c1ccccc1	4252
O=C(CC[C@H]1O[C@@H](n2cnc3c(NC(=O)c4ccccc4)ncnc32)[C@H](O)[C@@H]1O)NCC1CCCO1 (stereo partly specified)	4194
NC(Cc1ccc(C(F)(F)F)cc1)c1csc(NC(=O)NCCc2ccccc2)n1 (stereo unspecified)	2755

Random excerpt: 3 compounds from above.
SMILES	Autofluor counter
C[C@@H]1CN([C@H](C)CO)S(=O)(=O)c2ccc(Br)cc2O[C@@H]1CN(C)Cc1ccc(C(=O)O)cc1	3677
O=C(NCc1ccccn1)[C@@H]1CCCN1C(=O)[C@@H]1CCCN1C(=O)c1c(F)cccc1F	6002
Cc1cccc(C)c1-n1nnnc1C(c1ccnc2ccccc12)N(CCN(C)C)Cc1ccccc1 (stereo unspecified)	6376

Next section
SMILES	Autofluor counter
COCCCn1cc(CN2CC(N3CCN(C)CC3)CS2(=O)=O)nn1 (stereo unspecified)	5207
COC(=O)CCC(=O)N1CCC(Oc2cccc(C(=O)NCc3ccccn3)c2)CC1	3711
N#CCCN(C(=O)Nc1ccc(Cl)c(Cl)c1)C1CCCCC1	2918
COc1ccc(-c2csc(C(O)c3ccc(F)cc3)n2)cc1OC (stereo unspecified)	3688
O=C(c1ccc(CNS(=O)(=O)c2ccc(F)cc2)cc1)N1CCCCCC1	3441
COc1ccccc1S(=O)(=O)N(C)C[C@H]1Oc2cc(C#CCC3CCCC3)ccc2S(=O)(=O)N([C@H](C)CO)C[C@H]1C	2768
COc1ccc(N2C[C@H](Cc3ccccc3)[C@@H](CC(=O)Nc3ccccc3)C2=O)cc1	4102
Cc1csc(CN(C)C(=O)CC2C(=O)NCCN2Cc2ccccc2C)n1 (stereo unspecified)	3609
COc1ccccc1NC(=O)N(C)C[C@H]1Oc2ncc(C#CCN(C)C)cc2C(=O)N([C@H](C)CO)C[C@H]1C	3423
CCc1c(O)nc(SCC(=O)Nc2c(C)cccc2C)n(-c2ccc(F)cc2)c1=O	3696

Individual results from the entries so far.
For Autofluor counter, COc1ccccc1NC(=O)N(C)C[C@H]1Oc2ncc(C#CCN(C)C)cc2C(=O)N([C@H](C)CO)C[C@H]1C has the entry 3423
For Autofluor counter, COc1ccc(N2C[C@H](Cc3ccccc3)[C@@H](CC(=O)Nc3ccccc3)C2=O)cc1 has the entry 4102
For Autofluor counter, Cc1csc(CN(C)C(=O)CC2C(=O)NCCN2Cc2ccccc2C)n1 (stereo unspecified) has the entry 3609
For Autofluor counter, COc1ccccc1S(=O)(=O)N(C)C[C@H]1Oc2cc(C#CCC3CCCC3)ccc2S(=O)(=O)N([C@H](C)CO)C[C@H]1C has the entry 2768

The main list resumes, repeating the three entries before the break.
SMILES	Autofluor counter
Cc1csc(CN(C)C(=O)CC2C(=O)NCCN2Cc2ccccc2C)n1 (stereo unspecified)	3609
COc1ccccc1NC(=O)N(C)C[C@H]1Oc2ncc(C#CCN(C)C)cc2C(=O)N([C@H](C)CO)C[C@H]1C	3423
CCc1c(O)nc(SCC(=O)Nc2c(C)cccc2C)n(-c2ccc(F)cc2)c1=O	3696
O=C(Cn1c(Cn2c(-c3cnccn3)nc3ccccc32)nc2ccccc21)c1ccc(OC(F)(F)F)cc1	5741
COc1ccc(C(=O)NNC(=O)Cn2nc(C)cc2C)cc1S(=O)(=O)N1CCOCC1	3751
CCC(CC)C(=O)N(C)c1c(C)nc2c(OCCC3CCCCC3)cccn12	3426
COc1ccc(-c2csc(C(O)c3ccc(F)c(OC)c3)n2)cc1 (stereo unspecified)	3143
CCCNC(=O)C1(C)CCCN(Cc2cccc(C#N)c2)C1 (stereo unspecified)	3048
COCCNC(=O)C1(C)CCN(C(=O)c2ccc3sccc3c2)C1 (stereo unspecified)	2882
CCOC(=O)[C@]12CCCC=C1N(Cc1cccc3ccccc13)C(=O)[C@H](CC(=O)NCc1cccc3ccccc13)C2	5799
O=C(OCc1cc(=O)n2ccsc2n1)C1(c2ccccc2)CC1	3506
CC(C)C[C@H]1CN(CCCC[C@H]2CNC(=O)C(=O)N2CCc2ccc(O)cc2)C(=O)C(=O)N1CCC1CCCCC1	5710
CCOC(=O)C1CCCN(C(=O)c2cc(F)ccc2C)CC1 (stereo unspecified)	2903
CCNC(=O)C1(C)CCN(Cc2ccc(C#N)cc2)C1 (stereo unspecified)	2924
Cc1ccc(C(=O)N[C@H](C(=O)N2CCN(c3ncccn3)CC2)C(C)C)cc1	3712
COc1cc(C(=O)NC2CC(C)CC(C)(C)C2)cc(OC)c1OC (stereo unspecified)	3383
CCCN(C)C[C@@H]1Oc2ncc(Br)cc2C(=O)N([C@@H](C)CO)C[C@H]1C	2924
CCCOc1ccc(F)cc1-c1cc(C(=O)Nc2ccccc2)[nH]n1	3804
Cc1cc(S(=O)(=O)c2ccc(Cl)cc2)nc(S(=O)(=O)c2ccc(Cl)cc2)c1C#N	3613
CCOC(=O)N1CCN(C(=O)C[C@@H]2C[C@@]3(C(=O)OC)CCCCC=C3N(Cc3ccc(Cl)cc3Cl)C2=O)CC1	5781
CC1CCCC(NC(=O)c2cc(S(=O)(=O)N3CCCCC3)c[nH]2)C1C (stereo unspecified)	4227
COCCNc1nc2cc(-c3cccc(Cl)c3)sc2c(=O)n1C	4049
O=C(Nc1ccccc1Cl)c1cc(C2CCCN(C(=O)c3cccs3)C2)on1 (stereo unspecified)	4079
CCOc1cc(OCC)cc(C(=O)N2CCC[C@H]2C(=O)N2CCC[C@H]2C(=O)N[C@@H](C)c2ccccc2)c1	4149
CSc1nc(N)n2nccc2n1	6086
CN(CCN1CCOCC1)C(=O)c1cc(COc2ccc(F)cc2Cl)on1	3479
CC(=O)c1ccc(N2CCN(C(=O)C(=O)c3cn(CC(=O)N4CCOCC4)c4ccccc34)CC2)cc1	3976
C[C@@H]1CN([C@@H](C)CO)S(=O)(=O)c2ccc(Br)cc2O[C@H]1CN(C)C(=O)CN(C)C	3918
COc1ccc(NC(=O)N(C)C[C@@H]2OCc3cn(nn3)CCCC(=O)N([C@@H](C)CO)C[C@H]2C)cc1	3385
Cc1ccc2c(c1)N(Cc1ccccc1)C(=O)C(C)O2 (stereo unspecified)	3856
COc1ccccc1Cc1c(C2CCCCC2)nc2c3ccccc3ccn12	4804
Cc1cc(NS(=O)(=O)c2ccc(NC(=O)c3ccc([N+](=O)[O-])cc3)cc2)nc(C)n1	3592
CC1CCN(C(=O)COC(=O)c2ccccc2NCCO)CC1	2969
O=C(C1CCN(S(=O)(=O)c2cccc3cccnc23)CC1)N1CCN(C2CCCCC2)CC1	5649
CCOC(=O)C1CCCN(C(=O)c2ccc3sccc3c2)CC1 (stereo unspecified)	3182
COc1cc(C(=O)N2CCCC(C)(C(=O)NS(=O)(=O)C3CC3)C2)cc(OC)c1OC (stereo unspecified)	3823
CCCCN1C(=O)C(CC(=O)NCc2ccco2)CC(C(=O)N(CC)CC)=C1C (stereo unspecified)	3813
O=[N+]([O-])c1ccc(S(=O)(=O)N2CCN(c3ccccn3)CC2)cc1	4076
COCCNc1ncnc2c1ncn2[C@H]1CN(CCc2ccccc2)C[C@@H](CO)O1	4334
CCc1c(O)nc(SCC(=O)Nc2ccc(Cl)cc2)n(-c2ccccc2)c1=O	3112
COc1ccc(N2CCN(C(=O)Oc3ccc([N+](=O)[O-])cc3)CC2)cc1	6198
CC1(C(=O)NCc2cccs2)Cc2c(-c3ccccc3)ccnc2O1 (stereo unspecified)	3901
COc1ccc(Cn2cc(CN3CC(N4CCN(C)CC4)CS3(=O)=O)nn2)cc1 (stereo unspecified)	4140
Cc1ccc(CN2CCC(C(=O)c3ccc(F)cc3)CC2)cc1	4571
COc1ccc(-c2nc3ccc(Br)cn3c2CC(C)(C)C)cc1OC	6126
CCCN(CCC)Cc1cc(=O)oc2cc(OC)c(Cl)cc12	5510
CN(C)c1ccc(-c2ccnc3c2CC(C)(C(=O)Nc2ccc(F)c(Cl)c2)O3)cc1 (stereo unspecified)	3723
Cc1ccc2nc(CC(O)(c3ccccc3)c3ccccc3)ccc2c1	3486
COc1cc(NC(=O)c2cc(-c3cc(F)ccc3OC(C)C)n[nH]2)cc(OC)c1OC	3534
COC(=O)C1=C(C(=O)OC)C2C=CC1C1C(OC(C)=O)C(OC(C)=O)C21 (stereo unspecified)	3897
O=C(Nc1ccccc1F)c1csc(COCCO)n1	2766
CC(C)CN(C(=O)CN(C)C(=O)Cc1c(F)cccc1Cl)c1c(N)n(CC(C)C)c(=O)[nH]c1=O	3054
CC(CN1CC(=O)NC(=O)C1)N1CC(=O)NC(=O)C1 (stereo unspecified)	3409
Other compounds
SMILES	Autofluor counter
CC(=O)c1ccc(Nc2nc(C(N)Cc3ccc(C(F)(F)F)cc3)cs2)cc1 (stereo unspecified)	3873
NC(Cc1ccc(C(F)(F)F)cc1)c1csc(Nc2nncc3ccccc23)n1 (stereo unspecified)	3775
CCN(CC)C(=O)Cn1cc(S(=O)(=O)CC(=O)Nc2cccc(NC(C)=O)c2)c2ccccc21	4194
C=CCn1c(SCC(=O)Nc2ccc(Br)cc2)nc(O)cc1=O	3765
COc1ccc(NC(=O)c2cc(C3CCCCN3C(=O)CCCc3ccccc3)on2)c(C)c1 (stereo unspecified)	3368
Cc1ccc2c(C)c(C(=O)NCC3CCOCC3)oc2c1C	3805
Cc1ccccc1NC(=O)c1cc(S(=O)(=O)N2CCCCC2)ccc1N1CCOCC1	3576
CCc1cc(-c2cnnn2CCc2c[nH]c3ccccc23)ccc1-c1cn(CC(C)C)nn1	3415
[N-]=[N+]=NC(c1ccccc1)C(NC(=O)c1cc(C(F)(F)F)cc(C(F)(F)F)c1)c1ccccc1 (stereo unspecified)	6263
COCCN(C(=O)COC(=O)CCC1CCCCC1)c1c(N)n(Cc2ccccc2)c(=O)[nH]c1=O	3941
NC(c1ccncc1)c1ccc(Cl)cc1 (stereo unspecified)	3799
CC(C)CN(C(=O)COC(=O)CCSc1ccc(Cl)cc1)c1c(N)n(Cc2ccccc2)c(=O)[nH]c1=O	3910
COc1cc2oc(=O)cc(CN3CCCCCCC3)c2cc1Cl	6370
c1ccc(-c2ccc3ncccc3n2)cc1	4506
Cc1nc2n[nH]c(N)c2nc1C	3799
CC1(C)CC(=O)C=C(c2ccc(COC(=O)Cc3ccccc3)cc2)C1=O	3668
c1ccc(CN2CC[C@@H](Nc3nccn4ccnc34)C2)cc1	3498
C[C@H]1CN([C@@H](C)CO)S(=O)(=O)c2ccc(Br)cc2O[C@H]1CN(C)C(=O)c1cccc(F)c1	3020
CC1(C)CC(=O)C=C(c2n[nH]nc2C2CC2)C1	3728
CCc1nc2c(OCCOC)cccn2c1N(C)C(=O)c1ccc(C)cc1	3548
Cc1ccc(P(=O)(c2ccc(C)cc2)[C@@H](NC(c2ccccc2)c2ccccc2)c2ccccc2)cc1	5668
Cc1ccc(S(=O)(=O)NC(=O)C2(C)CCN2C(=O)Cc2cc(F)ccc2F)nc1 (stereo unspecified)	3761
CC(C)C(=O)N1CCC1(C)C(=O)Nc1nc2ccccc2[nH]1 (stereo unspecified)	3429
CCNC(=O)C1(C)CCCN(Cc2cc3ccccc3o2)C1 (stereo unspecified)	3562
CCCc1c(-c2ccccc2Br)ncn1Cc1ccccc1OC	6390
CCC1Nc2ncnc(N3CCc4ccccc4C3)c2N(Cc2ccc(Br)cc2)C1=O (stereo unspecified)	6146

These rows are one share of the data (hit frequency here may not be typical).
